Cruzain noTriton: blocks cruzain activity in detergent-free assay. purified cruzain, Z-FR-AMC fluorescence, no detergent. P25779. AID 1476. Potency, µM, for the others: max response, negative = inhibition, hits mostly inhibitors. 200,000 tested, 2.3% active; active = well fitted curve in the direction sought with a large enough effect; inconclusive = small, poorly fitted or top-dose-only effect, or another doubt; inactive = no such curve, though single readings can be large; an effect the other way counts as inactive or inconclusive;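 also: plate controls were enzyme without inhibitor for no effect and buffer without enzyme for full effect; nearly all actives have a fitted effect of over 40% in size; top concentration of the series not given in the record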
Target sequence (P25779 123-467 limits assumed): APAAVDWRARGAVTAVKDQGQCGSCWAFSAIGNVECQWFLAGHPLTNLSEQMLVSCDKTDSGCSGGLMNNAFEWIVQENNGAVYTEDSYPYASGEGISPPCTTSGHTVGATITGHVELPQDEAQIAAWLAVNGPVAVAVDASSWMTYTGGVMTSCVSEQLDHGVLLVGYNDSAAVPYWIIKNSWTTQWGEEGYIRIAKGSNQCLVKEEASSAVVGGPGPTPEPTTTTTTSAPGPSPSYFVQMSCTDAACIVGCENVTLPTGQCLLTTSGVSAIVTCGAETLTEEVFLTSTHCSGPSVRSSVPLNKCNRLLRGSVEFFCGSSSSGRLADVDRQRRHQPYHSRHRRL
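Detergent-free condition (0.00005% Triton X-100) in acetate buffer pH 5.5 with DTT. 1.5 nM enzyme and compound were pre-mixed 15 min, then 2 uM Z-FR-AMC substrate added; reaction progress from fluorescence change between first and third reads (60 s).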
RE007 growth inh: less growth of the S. pombe RE007 Vpr strain | S. pombe RE007 Vpr strain, BacTiter-Glo ATP luminescence, 24 h; control for the full effect not named in the record | Potency, µM (series often up to 92.2 µM), inactives show at the top dose activity change, negative = less growth | 360,000 tested, 0.21% active | AID 651644; active = well fitted falling curve with a large enough effect; inconclusive = small, poorly fitted or top-dose-only effect; inactive = no such curve, though single readings can be large or run the other way;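 also: % is scaled to controls: 0 for no effect and ±100 for the full control effect; nearly all actives have a fitted effect of over 50% in size; the assay follows cell death caused by Vpr and the record does not say whether a fall means rescue or toxicity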
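Fission yeast strain RE007, carrying one chromosomally integrated HIV-1 vpr copy, was seeded at OD 0.01 in PMG+AL medium with 23 nL pinned compound. After 24 h at 30 °C and 99% humidity, viability was read by BacTiter-Glo luminescence.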
Cruzain Triton: inhibitors of Trypanosoma cruzi cruzain with detergent | 200,000 tested, 0.43% active | AID 1478 | purified cruzain, Z-FR-AMC fluorescence, 0.01% Triton | Potency, µM, for inactives: max response, negative = inhibition, most hits filed as inhibitors; active = well fitted curve in the direction sought with a large enough effect; inconclusive = small, poorly fitted or top-dose-only effect, or another doubt; inactive = no such curve, though single readings can be large; an effect the other way counts as inactive or inconclusive;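 also: plate controls were neutral wells for no effect and buffer without enzyme for full effect; nearly all actives have a fitted effect of over 40% in size; top concentration of the series not given in the record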
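In this qHTS format, compounds are incubated with 1.5 nM cruzain for 15 min at room temperature before 2 uM Z-FR-AMC is added. Release of AMC is followed at 360/450 nm, and progress is taken as the 60 s fluorescence difference.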
Marburg entry inh: inhibitors of Marburg virus binding or cell entry; Marburg virus pseudotyped entry inhibition, cell reporter; control for the full effect not named in the record; about a third of the inactives were read at about 46 µM; Potency, µM (series often up to 37.8 µM), without a hit: at the highest dose activity change, negative = inhibition, actives largely listed as inhibitors; 300,000 tested, 1.8% active; AID 540276; active = well fitted inhibition curve with a large enough effect; inconclusive = small, poorly fitted or top-dose-only effect, or effect the other way; inactive = flat fitted curve, though single readings scatter; tested in HEK293 cells; about a fifth of its hits are not listed in these tables; also: % is scaled to controls: 0 for no effect and ±100 for the full control effect; luciferase read-out
StopGo reporter: lowers the luciferase signal of an FMDV 2A StopGo reporter; Potency, µM (titrated, usually from 57.9 µM), for the others: at the highest dose signal change, negative = less light; human cells with a luciferase reporter of 2A StopGo recoding; control for the full effect not named in the record; AID 1159524; 410,000 tested, 1.2% active; active = well fitted falling curve with a large enough effect; inconclusive = small, poorly fitted or top-dose-only effect; inactive = no such curve, though single readings can be large or run the other way; tested in HEK293T cells; also: % is scaled to controls: 0 for no effect and ±100 for the full control effect; nearly all actives have a fitted effect of over 45% in size; luciferase light after 4 h
SARS PLpro yeast: blocks SARS-CoV papain-like protease in a yeast assay; S. cerevisiae expressing SARS-CoV PLpro, growth rescue; control for the full effect not named in the record; Potency, µM (titrated, usually from 32.9 µM), inactives show at the highest dose activity, positive = growth rescue; 330,000 tested, 0.19% active; also: 0% is about no effect; nearly all actives have a fitted effect of over 55% in size; growth read by luminescence after 48 h
NS1 function inh: inhibitors of influenza NS1 protein function; S. cerevisiae slowed by influenza A NS1, growth recovery by OD600; Potency, µM (series often up to 46.1 µM), for inactives: at the top dose activity, positive = more growth; 270,000 tested, 0.4% active; also: actives are rising curves; nearly all actives have a fitted effect of over 50% in size
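S. cerevisiae expressing influenza A NS1, grown in glucose, washed, then diluted 1:100 into pH 6.0 -URA galactose medium with 23 nl compound. Growth recovery read as OD600; NS1-free strain serves as control.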
Lassa entry inh: Lassa virus entry inhibition; Lassa virus pseudotype entry inhibition, cell reporter; control for the full effect not named in the record; Potency, µM (top dose mostly 37.9 µM), for the others: at the top dose activity change, negative = inhibition, most hits filed as inhibitors; 300,000 tested, 1.2% active; active means well fitted inhibition curve with a large enough effect; inconclusive means small, poorly fitted or top-dose-only effect, or effect the other way; inactive means flat fitted curve, though single readings scatter; tested in HEK293 cells; also: % is scaled to controls: 0 for no effect and ±100 for the full control effect; nearly all actives have a fitted effect of over 50% in size; luciferase read-out
Active calls of the source: *; ? = inconclusive; / = no result given; & = joins results of further samples; [ ] = dose if it differs, or a comment. Unless noted, calls follow the shape of the dose curve; as a rule, active means well fitted rising curve with a large enough effect; inconclusive means small, poorly fitted or top-dose-only effect; inactive means no such curve, though single readings can be large or run the other way. Potency is read from the fitted curve at half-maximal effect. An unsorted share of the library, and some 4.7% of all compounds hit somewhere here.

SMILES	Cruzain noTriton	RE007 growth inh	Cruzain Triton	Marburg entry inh	StopGo reporter	SARS PLpro yeast	NS1 function inh	Lassa entry inh
O=C(NCc1ccc(Cl)cc1)C1CCCCN1S(=O)(=O)c1ccccc1 (stereo not given)	/	-2%	/	-16%[46.1 µM]	-20%	-4%	-3%	?
CCN(C(=O)COC(=O)c1ccc[nH]c1=O)c1cccc2ccccc12	/	21%	/	0%[46.1 µM]	-18%	-24%	/	5%[46.1 µM]
O=C(NCc1ccc2c(c1)OCO2)C1CC(=O)N(c2ccc(O)cc2)C1 (stereo not given)	2%	5%	4.4%	14%	-24%	9%	9%	31%
COc1ccc(N=C2SC(CC(=O)Nc3ccccc3)C(=O)N2CCc2ccccn2)cc1 (stereo not given)	?	7%	-4.5%	-7%	4%	1%	-4%	-15%
C/C(=N\Nc1nc(N2CCOCC2)nc(N2CCOCC2)n1)c1cccc([N+](=O)[O-])c1	/	0%	/	-22%[46.1 µM]	-26%	-1%	/	1%
N=c1c(S(=O)(=O)c2ccc(Br)cc2)cc2c(=O)n3ccccc3nc2n1Cc1ccccc1	/	-2%	/	-8%[46.1 µM]	7%	-5%	1%	?
CC1(C)CC(=O)C2=C(C1)NC(=O)C21C(C(=O)OC(C)(C)C)=C(N)Oc2ccc(Br)cc21 (stereo not given)	?	11%	2.2%	?	-26%	-2%	12%	23%[14.3 µM]
CCCNC(C)(C)COC(=O)c1ccccc1	-8%	-1%	3.0%	/	-15%	/	/	/
Cc1cc(C)cc(N2C(=O)N(CC(=O)c3ccc(Br)cc3)c3ccccc3S2(=O)=O)c1	?	/	-0.7%	/	30%	/	/	19%[46.1 µM]
Cc1ccc(C(=O)NC(=O)CSc2ncccc2C(=O)O)cc1	/	-3%	/	7%[46.1 µM]	-10%	0%	/	24%
Cc1ccc(S(=O)(=O)N(C)C)cc1NC(=O)CSc1nc2ncc(Cl)cc2[nH]1	/	4%	/	-3%	?	-7%	/	-2%
COc1cccc(NC(=O)CN(C)S(=O)(=O)c2ccc3nc(C)sc3c2)c1	-4%	/	-4.2%	4%[46.1 µM]	0%	/	/	-11%[46.1 µM]
CCOc1ccc(OCC)c(NC(=O)CN2CCN(CC(=O)NC(C)C)CC2)c1	/	-4%	/	/	?	0%	2%	/
COC(=O)c1sc(NC(=O)COc2cccc(C)c2)nc1C	-5%	3%	-3.1%	22%	12%	-6%	-3%	-3%
c1cncc(COC2CCCN(Cc3nc(-c4cccs4)no3)C2)c1 (stereo not given)	/	7%	/	/	-7%	10%	-3%	/
CCN(CC)CCNC(=O)c1ccc(NC(C)=O)cc1	10%&2%&-4%	-8%[18.4 µM]	0.5%&5.7%&-3.0%	?	-12%&-23%&9%	6%&0%	-4%&4%&0%	25%&-3%
O=C(O)c1cc(S(=O)(=O)NC23CC4CC(CC(C4)C2)C3)ccc1Cl	/	12%	/	/	-7%	-4%	8%	/
O=C(COC(=O)CCc1ccc(S(=O)(=O)N2CCOCC2)cc1)NC(=O)NC1CCCCC1	/	-7%	/	8%[14.2 µM]	-10%	-6%	/	7%
COc1ccc(CN2CCNC(=O)C2CC(=O)NC2Cc3ccccc3C2)c(OC)c1 (stereo not given)	/	-5%	/	/	14%	0%	2%	/
COc1cccc(CNc2cc(C)nc3nc(-c4ccc(C)cc4)nn23)c1	-1%	/	-1.2%	/	37%[activator]	/	/	-20%[46.1 µM]
COc1cc(/C=N/NC(=O)c2cccc([N+](=O)[O-])c2)ccc1OCc1ccccc1	29%	-2%	-14%	-23%	17%	2%	18%	6%
COc1ccc(-c2nc(CN3CCC(C(=O)NCC4CCCO4)CC3)c(C)o2)cc1OC (stereo not given)	/	-4%	/	0%[46.1 µM]	-8%	1%	-3%	19%[46.1 µM]
O=C(O)CCCC(=O)Nc1ccc(C(=O)NCc2cccnc2)cc1	13%	-7%	1.3%	-11%[46.1 µM]	-15%	1%	2%	4%
CC1(C)Cc2ccccc2-c2nc(-c3ccccc3)oc(=O)c21	6%	-3%	2.6%	?	?	3%	?	-22%
CCOC(=O)C1CCCN(C(=O)Cn2nc(C)n3nc(-c4ccccc4)cc3c2=O)C1 (stereo not given)	/	-2%	/	/	-13%	-1%	5%	/

More entries.
SMILES	Cruzain noTriton	RE007 growth inh	Cruzain Triton	Marburg entry inh	StopGo reporter	SARS PLpro yeast	NS1 function inh	Lassa entry inh
COc1ccc2nc(Nc3nc4cc5c(cc4s3)OCO5)sc2c1	?	-20%	-2.1%	?	-4%	-21%	16%	13%
COc1cc(C)ccc1OC(C)C(=O)Nc1ccc(N2CCCCC2)cc1 (stereo not given)	/	7%	/	-21%	-26%	0%	/	-13%
COC(=O)c1c(C)sc(-c2c(-c3ccc4c(c3)OCCO4)[nH]c3c2c(=O)n(C)c(=O)n3C)c1O	?	/	-2.8%	22%[46.1 µM]	-12%	/	/	0%[46.1 µM]
Fc1ccc(Nc2nc(SCc3cccc(Cl)c3)nc3ccccc23)cc1	-8%	/	0.3%	/	-26%	/	/	21%[46.1 µM]
Cc1cc(NC(=O)C2CCCN(S(=O)(=O)c3cccc4nsnc34)C2)ccc1Br (stereo not given)	-25%	/	-2.4%	?	?	/	/	-9%[46.1 µM]
Cc1[nH]c(=O)nc(SCc2ccc(Cl)c(Cl)c2)c1C#N	/	3%	/	0%[46.1 µM]	-9%	5%	3%	14%
CSc1ncc(Cl)c(C(=O)Nc2nnc(SC)s2)n1	-14%	21%	-2.4%	-1%	-23%	-2%	-13%	15%
CC1CC(C#N)N(N(C)C)C1=C(C#N)C#N (stereo not given)	/	-3%	/	-1%	-10%	0%	-5%	15%
c1ccc(-c2nnc(-c3ccccc3)c(-c3c[nH]c4ccccc34)n2)cc1	?	13%	-0.1%	0%	-18%	6%	10%	0%
COc1ccc2[nH]c(=O)c(CN(CCO)C(=O)NCc3ccccc3)cc2c1	-8%	11%	9.1%	13%	16%	/	-1%	24%
COc1cccc(CN(C(=O)c2cnccn2)C(C(=O)NC2CCCCC2)c2cc(OC)c(OC)c(OC)c2)c1 (stereo not given)	/	-4%	/	1%[46.1 µM]	5%	-1%	7%	/
O=C(NNC(=S)Nc1ccc(F)cc1)C1CC1c1ccc(Cl)cc1 (stereo not given)	4%	-15%	0.0%	0%	-16%	0%	13%	0.41µM*
O=C(COn1nnc2ccc(Cl)cc21)Nc1ccc(F)cc1	/	-10%	/	-1%	12%	12%	/	-4%
O=C(CN(C(=O)c1ccccc1Cl)N1C(=O)C2C3C=CC(C3)C2C1=O)c1cccs1 (stereo not given)	/	0%	/	/	20%	0%	-13%	/
COc1cc(CN2CCN(c3ccccc3C)CC2)cc([N+](=O)[O-])c1O	-2%	-7%	-1.0%	?	-19%	4%	-6%	-21%
Nc1nc(-c2ccc([N+](=O)[O-])cc2)c(C(=O)Nc2ccc(Cl)cc2)s1	/	30%	/	1%[46.1 µM]	-8%	-1%	4%	10%
O=C1CCC(C(=O)OCc2ccccc2)N1 (stereo not given)	-3%	4%	-0.1%	-3%	6%	-17%	3%	-7%
CCN(c1ccccc1)c1ncnc2c1cnn2-c1ccccc1	-7%	3%	-7.7%	/	13%	-14%	-9%	/
CCn1c2c(c3cc(Br)ccc31)CCC/C2=N\O	-8%	?	-9.1%	-8%	-26%	/	-96%	-10%
CCCCc1cc(=O)oc2cc(C)cc(OCc3nn[nH]n3)c12	-10%	8%	-11%	-15%	2%	-1%	1%	-1%
CC(C)C(=O)Nc1cc(=O)[nH]c2ncnn12	2%	11%	3.7%	2%[46.1 µM]	-17%	0%	9%	2%
COc1ccc(-c2nc(SCC(=O)Nc3c(F)cccc3F)n[nH]2)cc1	/	-1%	/	-16%	2%	/	/	?
N=C1/C(=C/c2coc3ccccc3c2=O)C(=O)N=C2SC(c3ccco3)=NN12	/	10µM*	/	5%[46.1 µM]	?	1%	0%	?
CN(C)P(=O)(NC(=O)c1cccn1C)N(C)C	/	10%	/	10%[46.1 µM]	?	1%	/	12%
COc1cccc(CNn2cnnc2)c1OCc1ccc(F)cc1	3%	0%	2.2%	11%	20%	-2%	-4%	7%

Carrying on:
SMILES	Cruzain noTriton	RE007 growth inh	Cruzain Triton	Marburg entry inh	StopGo reporter	SARS PLpro yeast	NS1 function inh	Lassa entry inh
O=C1CC(c2c(F)cccc2Cl)C2=C(COC2=O)N1 (stereo not given)	-1%	-4%	3.1%	1%	-12%	0%	11%	0%
Cc1ccc(OC(C)C(=O)Nc2ncc(Cl)cc2Cl)c([N+](=O)[O-])n1 (stereo not given)	/	4%	/	?	-11%	-9%	/	12%[46.1 µM]
O=C(NCCc1ccccc1)c1ccc(Cl)nc1	-5%	-18%	2.1%	?	0%	-9%	-1%	?
NC(=O)Cn1cc(/C=N\NS(=O)(=O)c2ccccc2)c2ccccc21	/	11%	/	-7%[46.1 µM]	44%[activator]	5%	10%	-1%[46.1 µM]
N#C/C(=C\c1cccc(F)c1)c1nc(-c2cc3c(ccc4ccccc43)oc2=O)cs1	?	/	-2.1%	/	-8%	/	/	12%[46.1 µM]
COc1ccccc1N1CCN(C(=O)C2CC=CCC2C(=O)O)CC1 (stereo not given)	-7%	13%	6.1%	0%	-19%	2%	7%	-18%
CC(=O)Nc1ccc(C(=O)CSc2nnc3ccc4ccccc4n23)cc1	-11%	/	-2.6%	-3%[46.1 µM]	14%	/	/	-12%[46.1 µM]
CCN(CC)c1nc(Oc2ccc(=O)[nH]n2)nc(N2CCOCC2)n1	8%	-12%	-1.7%	-3%	-15%	0%	-4%	1%
CCOc1ccc(NC(C)=O)cc1N	-7%	1%	1.4%	/	-18%	-6%	/	/
O=C(CSc1ccc(-c2ccccn2)nn1)NC1CCCC1	/	-2%	/	/	19%	4%	/	/
O=C(Nc1ccc(F)cc1)c1ccc2ncsc2c1	/	-14%	/	/	62%[activator]	-2%	-4%	/
Cc1cc(C)cc(-n2nnc(-c3nc(-c4ccccc4F)no3)c2C)c1	1%	/	0.7%	/	31%[activator]	/	/	?
O=C(NCc1ccccn1)c1cc2cc(Br)ccc2oc1=O	-7%	-4%	1.7%	31%	30%	0%	4%	8%

Screens (PubChem BioAssay)
